Bioassay records (PubChem BioAssay)
GIV-Gai inh = inhibitors of GIV GBA-motif binding to rat Galpha-i3 | AID 1224905 | Galpha-i3/FITC-GIV peptide fluorescence polarization, 90 min; stronger effect = lower value; scaled: aluminum fluoride 0%, vehicle 100% | percent of control (FP), % (test concentration not listed) | 210,000 tested, 0.42% active | P08753;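 active means replicate mean at 85% of control or lower, very high polarization wells dropped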;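 further: wells of about 15 µL received 100 nL stock; the first replicate is given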
Target sequence (P08753 whole entry, looked up): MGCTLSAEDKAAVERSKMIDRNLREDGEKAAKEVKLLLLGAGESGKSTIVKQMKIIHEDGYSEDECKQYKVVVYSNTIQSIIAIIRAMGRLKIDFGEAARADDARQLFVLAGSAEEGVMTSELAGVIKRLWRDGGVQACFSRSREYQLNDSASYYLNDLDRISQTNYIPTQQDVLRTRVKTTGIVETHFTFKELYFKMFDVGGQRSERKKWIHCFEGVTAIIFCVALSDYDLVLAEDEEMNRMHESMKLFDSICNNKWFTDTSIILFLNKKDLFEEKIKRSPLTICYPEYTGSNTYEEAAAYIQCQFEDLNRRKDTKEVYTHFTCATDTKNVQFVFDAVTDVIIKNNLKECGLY
Sa growth inh = inhibitors of Staphylococcus aureus growth at 42 °C; S. aureus RN4220 growth, OD600, 20 h; stronger effect = lower value; relative growth, % (test concentration not listed); 170,000 tested, 0.53% active;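 active means growth at 42 °C up to 50% and 20 or more points under that at 30 °C, or under 10% at both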;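 further: 300 nL library stock went into each well; scaled to the means of positive and negative controls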
HCMV UL50-53 inh = cytomegalovirus nuclear egress complex inhibition; HTRF UL50-UL53 interaction, normalized percent inhibition; inhibition, % (no concentration beside the values); 190,000 tested, 0.15% active;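 active means both replicates at 50% or more, plus weaker picks with an unusually low signal ratio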;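 further: stock transfer was 100 nL into about 20 µL; 0% = negative control wells and 100% = wells with untagged competitor protein; inactives centre near -12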
Sa growth inh second temp = further read-out of Sa growth inh, marked with its call; relative growth, %; measured here: growth at 30 °C;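 optical density after 20 h as mean of two plates; 100% = untreated growth and lower means inhibition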
* marks the source's active call; other numbers are inactive results; / = no result given; & = joins results of further samples. Rows are unselected, and some 0.85% of all compounds hit somewhere here.

smiles,GIV-Gai inh,Sa growth inh,Sa growth inh second temp,HCMV UL50-53 inh
COc1cc(NC(=O)CSc2nc(-c3ccccc3)no2)cc(OC)c1,103,90,91,/
CCN1CC(C(=O)O)CC1=O (stereo unspecified),98,104,92,-1
Cc1ccccc1OCC1=NN2C(=N)/C(=C\c3cccn3-c3cccc(Cl)c3)C(=O)N=C2S1,107,112,80,-14
CC(=O)N1c2ccccc2C(C)=CC1(C)C,109,111,98,0
COc1ccc(NC(=O)Cc2c(O)c3ccccc3[nH]c2=O)cc1,98,100,109,0
CCN(CC)c1ccc2cc(-c3nc(-c4ccccc4F)no3)c(=O)oc2c1,117,133,89,/
Cc1ccc(CNC(=O)CCS(=O)(=O)c2ccc(Br)s2)cc1,100,94,78,/
Cc1ccc(-c2nnc3c4ccccc4c(C)nn23)cc1S(=O)(=O)N(C)CCO,103,102,93,-1
CCC(=O)c1cn(CC(=O)N2CCCC2)c2ccccc12,/,88,87,-10
CC(C)n1cnc2nc(COc3ccccc3NC(=O)Nc3cccc(Cl)c3)cc(=O)n21,99,/,/,-4
Cc1ccc(-n2nc(C(=O)N3CCN(c4ccccc4F)CC3)c(=O)n(C)c2=O)cc1,101,70,85,/
O=C1N(c2ccccc2)c2ccccc2C1(O)C(F)(F)F (stereo unspecified),/,78,78,-12
CCOC(=O)c1c(-c2ccc(C)cc2)csc1NC(=O)c1cc(=O)c2cc(C)cc(C)c2o1,107,96,90,3
CCOc1ccc(OCC)c(NC(=O)c2c(C)nn(-c3ccccc3)c2-n2cccc2)c1,102,95,90,-8
COC(=O)c1ccc(NC(=O)c2c(NCc3ccc(C)o3)sc3c2CCCC3)cc1,108,71,46,/
Cc1c(C(=O)N(C)C)sc2c1c(=O)n(-c1ccc(Cl)c(Cl)c1)c(=O)n2CC(=O)Nc1cccc(C(F)(F)F)c1,105,116,74,/
O=C1CCN=C(Nc2ccc(F)c(Cl)c2)S1,97,114,101,-2
O=C(NC1CCCCC1)N1CCc2cc(S(=O)(=O)N3CCCc4ccccc43)ccc21,103,/,/,0
CCC(Sc1nc2c(sc3ccccc32)c(=O)n1CCCOC)C(=O)N1CCOCC1 (stereo unspecified),104,94,90,-9
CCOC(=O)c1[nH]c(COC(=O)c2ccc(Cl)c(S(=O)(=O)N3CCOCC3)c2)c(C(=O)OCC)c1C,/,105,99,3
c1ccc(-c2n[nH]c(-c3ccccn3)n2)nc1,101,106,90,-4
CCCOC(=O)c1cc2ccccc2oc1=O,101,94,82,/
CC(NC(=O)OC1CCCC1)(C(F)(F)F)C(F)(F)F,106,88,87,-34
O=C(NCc1ccc2c(c1)CCN2C(=O)c1ccccc1)c1cc2ccccc2[nH]1,102,115,100,/
CCOC(=O)Nc1ccc(C)cn1,100,101,84,-16

The last three compounds of the section before are carried over, then new ones follow:
smiles,GIV-Gai inh,Sa growth inh,Sa growth inh second temp,HCMV UL50-53 inh
CC(NC(=O)OC1CCCC1)(C(F)(F)F)C(F)(F)F,106,88,87,-34
O=C(NCc1ccc2c(c1)CCN2C(=O)c1ccccc1)c1cc2ccccc2[nH]1,102,115,100,/
CCOC(=O)Nc1ccc(C)cn1,100,101,84,-16
CCOC(=O)/C(C#N)=C/c1ccc(-c2ccccc2)o1,107,105,102,-17
COc1cccc(CNC(=O)c2cccn2-c2nnc(N3CCCC3)s2)c1,103,104,89,/
CCN(CC)CCCNC(=O)CC1CCN(S(=O)(=O)c2ccccc2)CC1,101,/,/,-28
CC(C)NCC(O)c1ccc2ccccc2c1 (stereo unspecified),106,94,81,-17&-14&-10
O=C(Nc1cc(C(=O)Nc2ccccc2O)cc(C(=O)Nc2ccccc2O)c1)c1ccccc1,/,100,75,-5
Cn1nc(-c2ccccc2)[nH]c1=O,105,119,88,-7
Cc1cc(C(=O)COC(=O)C2CCN(S(=O)(=O)c3cccs3)CC2)c(C)n1C,/,101,93,6
CC1(C)CC(N2COc3ccc4c5c(oc4c3C2)C(=O)c2ccccc2C5=O)CC(C)(C)N1,97,24,20,0
N#Cc1ccc(OCC(=O)N(C2CCCCC2)C2CCS(=O)(=O)C2)cc1 (stereo unspecified),/,83,91,-11
CNC(=O)c1ccc(Oc2ccc(C(=O)NC)cc2)cc1,101,84,79,/
Cc1ccc(Cc2c(C)nc3c(C(=O)NC4CCCC4)cnn3c2C)cc1,103,104,83,/
CCCN1C(=O)c2ccccc2NC1c1ccc(OC)c(COc2cccc(C)c2C)c1 (stereo unspecified),103,/,/,-26
O=C(Cn1c(=O)cnc2ccccc21)N1CCN(S(=O)(=O)c2ccccc2)CC1,/,78,90,-27
CS(=O)(=O)N(CC(=O)Nc1ccc(Br)cc1)c1ccccc1Br,100,111,79,/
COc1ccc(C2CC(c3c(-c4ccccc4)c4cc(Br)ccc4[nH]c3=O)=NN2C(=O)c2ccncc2)cc1 (stereo unspecified),96,/,/,-8
Cc1ccccc1-n1nnc2c(=O)oc3ccccc3c21,100,106,82,-16
O=C(O)/C(=N\NC(=O)c1ccccc1)c1ccccc1,108,102,88,-24
COc1cc2c(cc1NC(=O)C(C)Sc1nc3ccccc3n1C)oc1ccccc12 (stereo unspecified),/,101,98,-29
Cc1cc(OC(=O)CNC(=O)OCc2ccccc2)cc2oc(=O)c3ccccc3c12,/,102,97,1
O=C(/C=C/c1ccc(Br)o1)OCC(=O)c1c[nH]c2ccccc12,/,88,98,-14
CC(=O)Nc1ccc(C)cc1-c1nc2ccccc2n(Cc2cccc(Br)c2)c1=O,100,112,92,-2
CCC1CCCCN1C(=O)CSc1ccc(C)cc1 (stereo unspecified),/,121,99,-2
Cn1c(SCc2ccccc2)nnc1C1CCCN1S(=O)(=O)c1ccc2c(c1)OCCO2 (stereo unspecified),97,123,88,-5
Nc1c2c3c(sc2nc(=O)n1Cc1ccco1)CCC3,100,99,96,-12
CCN(C(=O)Nc1cn(CC(C)C)c(=O)c2ccccc12)c1cc(C)ccc1C,98,95,83,/

smiles,GIV-Gai inh,Sa growth inh,Sa growth inh second temp,HCMV UL50-53 inh
O=C(NCCN1C(=O)C2C3C=CC(C3)C2C1=O)Nc1cccnc1 (stereo unspecified),102,92,84,/
CC1(C)CC(=O)C=C(SCc2ccc(Cl)cc2)S1,102,111,91,-11
CCN1CCSc2ccc(C(=O)NCc3ccc4c(c3)OCO4)cc21,99,101,102,4
Oc1ccccc1/C=N/[n+]1ccccc1,/,86,94,-3
COc1ccccc1N1CCN(C(=O)c2cc3ccc4ccc(C)[nH]c4c3n2)CC1,100,79,75,/
Cc1noc(C)c1COC(=O)c1cc(Cl)cc(Cl)c1,/,89,96,-20
Cc1noc(/C=C/N(C)C)c1S(=O)(=O)N(C)Cc1ccccc1,105,87,100,/
c1ccc2c(-c3ccncc3)c[nH]c2c1,103,77,23,-36&8
CCOc1ccc(NC(=O)C2Nc3cc(F)ccc3S(=O)(=O)N2)cc1 (stereo unspecified),98,/,/,-26
CCOC(=O)CC(=O)Nc1ccn(C)n1,101,111,91,-9
Cc1cc2c(NC(=O)COCC(=O)O)cccc2nn1,73*,103,92,-28
O=C(NC1CC1)c1nc(Nc2ccc(F)cc2)c2ccccc2n1,106,/,/,0
Cc1ccc(/C=C2/SC(=S)N(CCc3ccc(Cl)cc3)C2=O)o1,109,96,79,-12
C=C(C)CC(Nc1ccc(C)cc1)c1ccco1 (stereo unspecified),/,102,112,1
COCCNC(=O)c1ccc2c(=O)n(Cc3ccccc3)c(SCC(=O)c3ccc(Cl)cc3)nc2c1,99,/,/,-9
COc1ccc(/C=C(\NC(=O)c2ccccc2)C(=O)N2CCOCC2)cc1,102,96,103,16
COc1ccc(-c2cc(C(=O)Nc3c(C(=O)c4ccc(C)cc4)oc4ccccc34)no2)cc1,103,112,88,-23
Cc1ccccc1CCNC(=O)COc1ccccc1-c1nnc(-c2ccccc2)o1,104,/,/,15
Cc1cc(O)c(C(c2ccccc2)N2CCN(c3ccccc3)CC2)c(=O)n1Cc1ccco1 (stereo unspecified),98,105,87,/
C1=C(c2ccccc2)Nc2ncnn2C1c1cccs1 (stereo unspecified),-24*,117,88,/
CN1CCN(C(=S)NCC2CCCO2)CC1 (stereo unspecified),98,103,92,-25
c1ccc(-c2[nH]ncc2CNCc2ccco2)cc1,99,89,88,/
COC(=O)c1sccc1NC(=O)CC#N,111,92,84,12
Cc1cccc(Cn2c(C)c(C)c3cc(C(=O)NCc4ccco4)ccc32)c1,103,98,86,/
Brc1[nH]nc2ncnc(N3CCN(c4ncccn4)CC3)c12,104,/,/,-6

smiles,GIV-Gai inh,Sa growth inh,Sa growth inh second temp,HCMV UL50-53 inh
COc1cc(NC(=O)C2CCCN2S(=O)(=O)c2ccc3c(c2)CC(C)N3C(C)=O)cc(OC)c1 (stereo unspecified),102,/,/,-7
O=C(CCN1CCCCC1)c1ccc(-c2ccccc2)cc1,96,61,66,/
CCC1SC2=NC(C)=C(C(=O)OC)C(c3ccccc3Br)N2C1=O (stereo unspecified),102,94,88,/
COc1ccc(NC(=O)c2ccco2)cc1NC(=O)COc1ccc(C)cc1C,106,123,90,-96
COc1ccc(C(=O)N2c3ccccc3C(N(C(C)=O)c3ccccc3)CC2C)cc1 (stereo unspecified),98,/,/,-2
Brc1cccc(Oc2ncnc3sccc23)c1,/,77,80,-16
O=C(c1cc2ccc3cccnc3c2[nH]1)N1CCC(N2CCCCC2)CC1,101,/,/,0
NC(=O)C1CCCN1c1cnn(Cc2ccccc2)c(=O)c1Cl (stereo unspecified),/,106,99,3
CN(C)c1ccc(C2Nc3ccccc3-c3nc4ccccc4n32)cc1 (stereo unspecified),99,94,75,-8
Cc1ccc(Cn2c(CNC(=O)CCc3ccccc3)nc3cccnc32)cc1,117,114,95,/
CSc1nnc(SCc2nc(-c3ccc(Cl)cc3)cs2)s1,106,101,98,3
Cc1ccc(NC(=O)NCCCn2c(-c3ccc(F)cc3)nc3cccnc32)cc1F,101,/,/,-11
Cc1oc(C(C)(C)C)c(CO)c1C(=O)O,/,114,93,-7
CCc1ccc(CNCCCSc2nnnn2-c2ccccc2)cc1,101,92,58,-16
COc1ccc(OC)c(NC(=O)c2coc(=O)c3ccccc23)c1,99,89,89,8
O=C(CNC(=O)c1ccc2c(c1)SC1=NS(=O)(=O)CCN12)Nc1cc(Cl)ccc1Cl,/,77,86,-43
CCCNC(=O)CCc1nnc2ccc(N3CCN(c4cccc(OC)c4)CC3)nn12,106,116,88,/
Cc1c(C(=O)N(C)C)sc2c1c(=O)n(-c1ccc(Cl)c(Cl)c1)c(=O)n2CC(=O)Nc1ccc(Br)cc1F,108,130,98,/
CC(=O)N=C1c2ccccc2CN1c1cc(Cl)cc(Cl)c1,/,89,90,-14
CCOc1ccc(NC(=O)c2cc(=O)c3cc(CC)ccc3o2)c2cccnc12,101,/,/,-5
Cc1nc(C(N)=O)c2c(n1)n(-c1ccc(F)cc1)c(=O)n2C,103,/,/,-18
Cn1c(=O)n(C)c2cc(CNCCc3ccc(S(N)(=O)=O)cc3)ccc21,103,/,/,-16
CCCn1c(=O)c2ccc(C(=O)NC(C)C)cc2n2c(=O)n(CC(=O)NC3CCCC3)nc12,106,/,/,-42
C=CCn1c(SCC(=O)OCCCCC)nc2sc3c(c2c1=O)CC(C)(C)OC3,103,/,/,-9
O=C(CSCc1cc(=O)n2ccsc2n1)Nc1ccccc1,109,110,96,-1

Whole records, quoted from the list.
O=C(CSCc1cc(=O)n2ccsc2n1)Nc1ccccc1 is listed with GIV-Gai inh: 109; Sa growth inh: 110; Sa growth inh second temp: 96; HCMV UL50-53 inh: -1
O=C(CNC(=O)c1ccc2c(c1)SC1=NS(=O)(=O)CCN12)Nc1cc(Cl)ccc1Cl is listed with GIV-Gai inh: /; Sa growth inh: 77; Sa growth inh second temp: 86; HCMV UL50-53 inh: -43

More entries.
smiles,GIV-Gai inh,Sa growth inh,Sa growth inh second temp,HCMV UL50-53 inh
CCOC(=O)c1sc(N)cc1C,/,104,94,-14
CCc1ccc(NC(=O)CCCc2nnc3n(CCCOC)c(=O)c4sccc4n23)cc1,100,125,89,/
O=C(CO/N=C/c1ccccc1OC(F)F)N1CCN(c2ccccc2)CC1,/,103,101,4
CCOC(Cn1c(SCc2c(F)cccc2Cl)nc2ccccc2c1=O)OCC,104,118,88,/
Cc1cn2c(=O)cc(COc3ccc(C(C)(C)C)cc3)nc2s1,101,113,92,-18
CCc1ccccc1NC(=O)C1CC(=O)N(C2CCCCC2)C1 (stereo unspecified),104,119,98,-8
Cc1cccc(Cn2c(-c3ccccc3)nc3ccccc32)c1,99,83,62,-7
O=C(Cc1ccccc1)N/N=C/C=C/c1ccco1,105,83,101,-63
CC(C)NC(=O)Cc1csc2nc(-c3ccccc3)cn12,110,106,96,/
